Source: PubChem BioAssay (National Center for Advancing Translational Sciences (NCATS))
2A firefly: lowers the firefly signal of an FMDV 2A StopGo reporter. HEK cells with a luciferase reporter of 2A StopGo recoding. AID 1745856. actives 0.23% (n = 120,000). Potency, µM (series often up to 57.5 µM), for inactives: top-dose signal change, negative = less light; active = well fitted falling curve with a large enough effect; inconclusive = small, poorly fitted or top-dose-only effect; inactive = no such curve, though single readings can be large or run the other way; note: nearly all actives have a fitted effect of over 60% in size; overnight with compound
StopGo RLuc: FMDV 2A StopGo reporter, Renilla signal; HEK cells with a luciferase reporter of 2A StopGo recoding; Potency, µM (highest dose often 57.5 µM), inactives show at the highest dose signal change, negative = less light; actives 0.32% (n = 120,000); active means well fitted falling curve with a large enough effect; inconclusive means small, poorly fitted or top-dose-only effect; inactive means no such curve, though single readings can be large or run the other way; note: nearly all actives have a fitted effect of over 55% in size; overnight with compound
Numbers without * were called inactive; u = inconclusive; [ ] = dose if it differs, or a comment. % is set by controls: 0 for no effect and ±100 for the full control effect; potency is the fitted concentration of half-maximal effect. An excerpt. The share of hits here may be higher or lower than overall.

smiles | 2A firefly | StopGo RLuc
O=C(CC(c1cccc(F)c1)n1cccc1)Nc1ccc2c(c1)OCO2 (stereo not given) | 103%[activator] | 55%[activator]
COc1ccc2nc(SCc3nc(-c4cccc(Cl)c4)no3)[nH]c2c1 | 4% | 18%
O=C(COC(=O)c1cc([N+](=O)[O-])ccc1Cl)c1cc2ccccc2o1 | 11% | 0%
Cc1ccc(CNC(=O)C2CCC(CNS(=O)(=O)c3ccc4c(c3)CCCC(=O)N4)CC2)cc1 (stereo not given) | -16% | 10%
NC(=O)c1cccc(Oc2ccc([N+](=O)[O-])c3cnccc23)c1 | 1% | 22%
Cc1ccccc1NC(=O)Cn1cnc2c(cnn2-c2ccc(F)cc2)c1=O | 13% | 0%
NC(=O)C1CCCCN1C(=O)c1nn(-c2ccccc2)c(=O)c2ccccc12 (stereo not given) | -1% | -11%
COc1ccc(N2CCN(CCCNC(=O)c3cnn(-c4ccc(C)cc4)c3-n3cccc3)CC2)cc1 | -1% | 3%
CC(=O)N1CCCc2cc(S(=O)(=O)N3CCCC(C(=O)Nc4ccc(C)c(F)c4)C3)ccc21 (stereo not given) | u | -12%
COC(=O)Cn1c(=O)c2c(nc(-n3nc(C)cc3C)n2CC(C)C)n(C)c1=O | -4% | -9%
CCc1cccc(CC)c1NC(=O)C(Sc1ccccc1)c1ccccc1 (stereo not given) | 5% | 7%
COc1ccc(-c2cnc(C)o2)cc1S(=O)(=O)Nc1ccc(F)cc1 | 31% | -8%
CC(=O)C1=C(C)N(C2CCCCC2)C(=O)C1(NC(=O)C1CCCCC1)C(F)(F)F (stereo not given) | -11% | 0%
O=C(Nc1cccc(Cl)c1)N1CCN(Cc2nc3cc(C(=O)N4CCCCC4)ccc3o2)CC1 | -7% | -13%
Cc1ccc2oc(C(=O)NCc3ccncc3)cc(=O)c2c1 | -1% | -1%
C=C(C)COc1ccc2cc(-c3ccc(OC)cc3OC)c(=O)oc2c1 | 134%[activator] | 69%[activator]
CCOc1ccc(CNC(=O)C2CCCN(S(=O)(=O)N(CC)c3ccc(OCC)cc3)C2)cc1 (stereo not given) | u | u
Cc1cc(C(=O)OCCOc2ccccc2)c2ccccc2n1 | 44%[activator] | 24%
COc1ccc(CC(=O)N2CCc3cc(OC)c(OC)cc3C2COc2ccc3c(C)cc(=O)oc3c2)cc1OC (stereo not given) | -16% | 3%
COc1ccc(Cn2c(Oc3cccc(C)c3)nc3c2c(=O)n(C)c(=O)n3C)cc1 | -12% | -5%
CCC/C=C(/CC)C[N+]1(C)CCCCC1 | 0% | -4%
CC(C)=CCOc1c2occc2cc2ccc(=O)oc12 | 9% | 34%[activator]
CCOC(=O)C1CCCN(C(=O)c2nn(-c3ccc(OC)cc3)c(=O)c3c2c2ccccc2n3C)C1 (stereo not given) | 9% | 15%
CCN(C(=O)c1cn(-c2cccc(OC)c2)c(=O)c2ccccc12)c1ccccc1C | -8% | 13%
CCCn1c(C)c(C(=O)NCC2CC2)c2cc(OC)ccc21 | -2% | -7%
C/C(Cl)=C/C[N+](C)(C/C=C(\C)Cl)Cc1ccccc1 (stereo not given) | 4% | -8%
O=C(NC1CC2CC1C1CCCC21)c1ccccc1C(F)(F)F (stereo not given) | 19% | 1%
COc1ccc(-c2cc(C(=O)NCCCOC(C)C)c3cc(Br)ccc3n2)cc1 | 0% | -4%
CCn1cc2nc(SCc3ccccc3Cl)n(Cc3ccc(OC)cc3)c(=O)c2n1 | -8% | -10%
COc1ccc(Nc2nc3ccccc3nc2NS(=O)(=O)c2cccc(Cl)c2)cc1 | 4% | 54%[activator]

Fetched by compound from above:
smiles | 2A firefly | StopGo RLuc
CCn1cc2nc(SCc3ccccc3Cl)n(Cc3ccc(OC)cc3)c(=O)c2n1 | -8% | -10%
COc1ccc(-c2cc(C(=O)NCCCOC(C)C)c3cc(Br)ccc3n2)cc1 | 0% | -4%
O=C(NC1CC2CC1C1CCCC21)c1ccccc1C(F)(F)F (stereo not given) | 19% | 1%
COc1ccc(CC(=O)N2CCc3cc(OC)c(OC)cc3C2COc2ccc3c(C)cc(=O)oc3c2)cc1OC (stereo not given) | -16% | 3%

Later entries.
smiles | 2A firefly | StopGo RLuc
O=C(NCc1nc(-c2cccs2)no1)c1ccc(Oc2cccnc2)cc1 | -2% | -6%
CCN(CC)C(=O)COc1ccc(-c2nnc(Nc3ccc(OC)c(C(=O)NC)c3)c3ccccc23)cc1 | 14% | 133%[activator]
COc1ccc(S(=O)(=O)N2CCN(S(=O)(=O)c3ccc4ccccc4c3)CC2)cc1 | -1% | 6%
CCOc1ccc(CCNC(=O)CN2C(=O)COc3ccc(S(=O)(=O)N4CCC(C)CC4)cc32)cc1 | -4% | 21%
O=C(NCc1ccccc1)C(=O)NCC(c1cccs1)S(=O)(=O)c1cccs1 (stereo not given) | -20% | 14%
O=S(=O)(c1ccccc1)c1nc(-c2ccc(F)cc2)oc1NCc1ccccc1 | -8% | 98%[activator]
Cc1cc(Cl)ccc1S(=O)(=O)Nc1cccc(NC(N)=O)c1 | -15% | 107%[activator]
O=C(NCC1CN(Cc2ccccc2)CCO1)C1CCCCC1 (stereo not given) | 8% | 30%[activator]
Cc1cccc(NC(=O)N2CCC(CN3CCc4ccccc4C3)CC2)c1C | -17% | -9%
CC(C)CCNC(=O)c1ccc2c(c1)NC(=O)C(CS(=O)(=O)Cc1cccc(Br)c1)N2 (stereo not given) | -10% | 11%
CC(c1cc2ccccc2o1)N(C)Cc1nc(-c2ccc(F)cc2)no1 (stereo not given) | -6% | -12%
COc1ccccc1OCCn1cc(C(C)=O)c2ccccc21 | u | 16µM*
N#Cc1ccc(Oc2cccc(-c3cnc4ccccc4n3)c2)cc1C#N | 7% | 3%
CCOc1ccc(CCNC(=O)c2cn(C)c3ccc(S(=O)(=O)N4CCCCCC4)cc3c2=O)cc1OCC | -14% | -13%
Cc1ccc(CN2CCSc3ccc(C(=O)NCCc4ccccc4)cc32)cc1 | 102%[activator] | 102%[activator]
Cc1cc(C)nc(NC(=O)c2csc3ccccc23)n1 | 40%[activator] | -13%
COc1cccc(C2CC(=O)Oc3c2c(=O)n(C)c2ccccc32)c1 (stereo not given) | 6% | 1%
CCn1ccc2cc(S(=O)(=O)N3CCC(C(=O)NCCc4ccc(C)cc4)CC3)ccc21 | -15% | 12%
Cc1cc(C)c2c(c1)C(O)(CC(=O)c1ccco1)C(=O)N2 (stereo not given) | -11% | -15%
Cc1cc(C)cc(NC(=O)c2n[nH]c(=O)c3ccccc23)c1 | 56%[activator] | 2%
CCOc1ccc(NS(=O)(=O)c2cc(NC(=O)Cc3c(F)cccc3Cl)ccc2OC)cc1 | 17% | 124%[activator]
COC(=O)c1nc2ccccc2nc1N1CCN(Cc2ccccc2)CC1 | 11% | 6%
CC(C)c1ccc(C(NC(=O)c2n[nH]c(=O)c3ccccc23)C(C)C)cc1 (stereo not given) | 18% | 7%
COc1cc(C2CC(=O)Nc3nc(C)[nH]c(=O)c32)ccc1OCc1ccccc1C (stereo not given) | 0% | 4%
COc1ccc(-c2nc(CN3CCC(C(=O)NCCCN4CCN(c5ccccc5F)CC4)CC3)c(C)o2)cc1OC | u | 0%
COc1ccc(OC)c(NC(=O)Cn2cc(C(=O)c3ccccc3)c3ccccc32)c1 | 5% | 14%
Cc1c(C(=O)c2ccccc2)oc2ccc(F)cc12 | 0% | -12%
Cc1cccc(NC(=O)Cn2nc(N3CCN(c4ccccc4)CC3)ccc2=O)c1C | 6% | -11%
Oc1ccc(-c2nc(-c3cc(F)ccc3F)cs2)cc1 | 39%[activator] | 13%
CSc1ncc(C(=O)N2CCN(c3ccc(Cl)cc3)CC2)c(C)n1 | -14% | -12%
COc1cccc(CNC(=O)CSc2nc(=O)[nH]c3c2CCC3)c1 | -23% | -3%
O=C(NCCc1ccccc1)c1ccc2c(c1)N(Cc1ccccc1)C(=O)c1ccccc1S2=O (stereo not given) | -8% | -12%
CCCc1nc2c(-c3ccc(F)cc3)c(C)[nH]n2c(=O)c1Cl | u | u
CC(C)N(C(=O)CSc1nc2c([nH]1)c(=O)n(C)c(=O)n2C)c1ccccc1 | -4% | -9%
CC(=O)N/N=C/c1cc(Cl)ccc1OCCCOc1ccccc1C | 42%[activator] | 6%
Cc1cc(C)cc(C(=O)C(C#N)C(=O)NC2CCCCC2)c1 (stereo not given) | 5% | 8%
CCCn1nc(C(=O)Nc2ccc(OCC(=O)N(C)C)cc2)c2ccccc2c1=O | 103%[activator] | 81%[activator]
O=C(COc1ccccc1C(=O)Nc1ccccc1)NC1CCCCC1 | 18% | 24%
CCCCNC(=S)NN=C1CCCCCC1 | 79%[activator] | 254%[activator]
Cc1cccc(C)c1OCC(=O)Nc1ccc(Cl)cc1C(=O)c1ccccc1 | 0% | 43%[activator]
Cc1ccc(-c2nc(CC(=O)NC3CCN(Cc4ccccc4)CC3)cs2)cc1 | 4% | -1%
CCOc1ccccc1NC(=O)Nc1cc(C(=O)NCc2ccc(C)cc2)ccc1N1CCCC1 | -2% | 33%
COC(=O)c1ccccc1NC(=O)COCc1cc(-c2cccs2)on1 | -28% | 24%
Cc1nc2ccccc2nc1CN1C(=O)C2CCCN2C1=O (stereo not given) | -2% | -9%
Cc1cc(C)cc(-n2ccnc2SCC(=O)Nc2cccc3ccccc23)c1 | 2% | 13%
CN(C(=O)Cn1cc(S(=O)(=O)N2CCN(c3ccccc3F)CC2)c2ccccc2c1=O)c1ccc(Cl)cc1 | -14% | 21%
CN(Cc1ccc(Cl)cc1)S(=O)(=O)c1cn(C)c(=O)n(C)c1=O | 8% | -2%
CCCCOc1ccccc1C(=O)Nc1onc2c1CCCC2 | 2% | -6%
COc1ccccc1N(C)S(=O)(=O)c1ccc(C(=O)Nc2c(C)cccc2C)cc1 | 4% | 4%
COc1cc(C(=O)OCC2C(COC(=O)c3cc(OC)c(OC)c(OC)c3)C2(Cl)Cl)cc(OC)c1OC (stereo not given) | -5% | -5%
CCOc1ccc(CNCCc2c[nH]c3ccccc23)cc1OC | -13% | -15%
CCCN(CC(=O)N(C)Cc1ccsc1)Cc1ccccc1 | 6% | 14%
Cc1cc(C)c2c(=O)cc(C(=O)Nc3nnc(CC(C)C)s3)oc2c1 | 3% | -7%
O=C(OCc1cc(=O)n2nc(-c3cccs3)sc2n1)c1ccccc1 | -6% | -11%
CC(=O)Nc1ccc(NC(=O)C2CCN(c3cnccn3)CC2)cc1 | -17% | -11%
COCCN1C(=O)C(=O)/C(=C(/O)c2ccc(OC)cc2C)C1c1ccncc1 (stereo not given) | 5% | 1%
CC(Sc1nnc2ccccn12)C(=O)c1ccc(Br)cc1 (stereo not given) | 0% | 108%[activator]
Cc1ccc(C(=O)/C=C/c2ccc(-c3ccc(C)c(Cl)c3)o2)cc1 | 35%[activator] | 11%
CCOCCCNC(=S)NC1CCCC1 | 9% | -3%
CCc1ccc2oc(C(=O)N(Cc3ccc(C)cc3)C3CCS(=O)(=O)C3)cc(=O)c2c1 (stereo not given) | -8% | 14%

Full records from above. Screens in order: 2A firefly	StopGo RLuc
Shown for `COc1ccccc1N(C)S(=O)(=O)c1ccc(C(=O)Nc2c(C)cccc2C)cc1` = 4%	4%
Shown for `CN(Cc1ccc(Cl)cc1)S(=O)(=O)c1cn(C)c(=O)n(C)c1=O` = 8%	-2%
Shown for `CCCN(CC(=O)N(C)Cc1ccsc1)Cc1ccccc1` = 6%	14%

(listing goes on)
smiles | 2A firefly | StopGo RLuc
COc1ccc(C)cc1N(C)C(=O)c1sc2nc3n(c(=O)c2c1C)CCCCC3 | -15% | -10%
CCc1ccc(C2CC(=O)Nc3cc4c(cc32)OCO4)cc1 (stereo not given) | -2% | -1%
CC(C)CNc1cc(NC2CCCCC2)c2c3c(onc13)-c1ccccc1C2=O | 10% | -12%
CCN1CCN(c2nc3c(c(=O)[nH]c(=O)n3C)n2CCc2ccccc2)CC1 | -2% | 1%
O=C(OCc1ccc([N+](=O)[O-])cc1)C1(c2cccc(F)c2)CCCC1 | 7% | 14%
COc1ccccc1N1CCN(C(=O)c2sc3nc4n(c(=O)c3c2C)CCC4)CC1 | -15% | -14%
Cc1nc2n(c(=O)c1C)CN(CCN1CCOCC1)CN2c1cccc(C(F)(F)F)c1 | u | u
Cc1cccc(Cn2c(NCCCn3ccnc3)nc3c2c(=O)[nH]c(=O)n3C)c1 | 23% | 9%
CCn1c(=O)c(=O)[nH]c2cc(C(=O)N3CCC4(CC3)OCCO4)ccc21 | 0% | -6%
COc1ccc(Nc2nc3ccccc3nc2NS(=O)(=O)c2ccc(C)c(C)c2)cc1OC | 62%[activator] | 235%[activator]
Cn1cc(C2c3ccccc3C(=O)N2CC(=O)NCC(N)=O)c2ccccc21 (stereo not given) | -4% | -7%
Cc1cccc(NC(=O)CSc2nc3ccc(NC(=O)c4ccco4)cc3s2)c1 | u | u
CN(C)c1ccc(C=Nc2ccc(F)cc2)cc1 | 21% | 10%
Cc1ccc(C)c(NC(=O)C2CCN(c3ncnc4c3nc3n4CCCCC3)CC2)c1 | 15% | 3%
CCc1ccc(-c2[nH]c3c(c2-c2c(-n4cccc4)n(C)c(=O)[nH]c2=O)c(=O)[nH]c(=O)n3C)cc1 | -12% | -14%
O=C(CSc1ccc(F)c(F)c1)Nc1ccc2c(c1)OCCCO2 | 184%[activator] | 4%
CC(NC(=O)CCCc1c[nH]c2ccccc12)c1ccncc1 (stereo not given) | -3% | -7%
CC1C(c2ccccc2)=[N+]([O-])C(C)(c2ccc(F)cc2)N1O (stereo not given) | 1% | 0%
